From PubChem
TRPML1 ag – qHTS for Agonists of the Human Mucolipin Transient Receptor Potential 1 (TRPML1). TRPML1-expressing cells, Ca2+ dye fluorescence, FDSS; host cell line not named in the record; reference of the full effect not given here. activation, % (test concentration not listed). 0.12% of 410,000 active. AID 624414, 2012; in the data active = activation above about 50%; inconclusive = about 30% to 50%; inactive = below about 30%; also: 0% is about no effect; the text of the record puts the active cut at 80%
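Kinetic FDSS Ca2+ read in Tet-induced TRPML1-DL cells (ABD Ca8 dye plus quencher, 45-90 min RT loading): baseline, then compound, then 110 s agonist window; EC80 agonist 54-4 at 4uM final added afterwards for a 110 s antagonist window.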
D2 PAM – Beta-Arrestin HTS for Positive Allosteric Modulators of the Human D2 Dopamine Receptor: Potentiators; 0.23% of 360,000 active; D(2) dopamine receptor (Homo sapiens), P14416; DiscoveRx D2 beta-arrestin cells, luminescence, 90 min; 100% = 57 uM dopamine signal; potentiation, % (test concentration not listed); active = potentiation of 50% or more; inconclusive = 30% to 50%; inactive = 30% or less;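 also: compound concentration not given in the record; tested on top of an EC20 dose of dopamine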
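D2 cells co-treated with compound plus 50 nM dopamine (EC20) for 90 min at 37 deg C to detect potentiation. Beta-arrestin recruitment was read as enzyme-fragment luminescence after 1 h at ambient temperature. Full response was set by 57 uM dopamine.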
TRPV1 potentiator – HTS Assay for Compounds that Act as Potentiators of the Vanilloid Receptor 1; AID 540277, 2011; 0.02% of 320,000 active; TRPV1-expressing cells, Fluo-8 calcium influx, capsaicin EC20 potentiation; host cell line not named in the record; control for the full effect not named in the record; potentiation, % at 8.33 µM; active means potentiation above 80%; inconclusive means 30% to 80%; inactive means below 30%; also: 0% is about no effect
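TRPV1-expressing cells were cultured overnight at 35.5C and loaded with Fluo-8 calcium dye for 40 to 90 min at room temperature. After a 10 s baseline, compound was added and calcium influx was read kinetically for 3 min (ex 480/em 520 nm).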
TRPML1 inh – qHTS for Inhibitors of the Human Mucolipin Transient Receptor Potential 1 (TRPML1); 0.02% of 390,000 active; activity change, negative = inhibition, % (test concentration not listed); TRPML1-inducible cells, Ca2+ dye fluorescence, FDSS; stronger effect = lower value; inhibition of EC80 agonist-evoked calcium signal; Mucolipin-1 (Homo sapiens), Q9GZU1; in the data active means activity change below about -50%; inconclusive means about -30% to -50%; inactive means above about -30%;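 also: stimulus is agonist 54-4 at its EC80 concentration; % is scaled to controls: 0 for no effect and ±100 for the full control effect; compound concentration not given in the record; the text of the record puts the active cut at -80%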
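Calcium fluorescence in TRPML1-DL cells induced overnight with Tet: a 110 s read after compound pin addition, then a 110 s antagonist read after challenge with 54-4 at 4 uM final (EC80).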
CtBP-E1A inh – qHTS Assay for Inhibitors of the CtBP/E1A Interaction | CtBP / adenovirus E1A interaction (AlphaScreen) | AlphaScreen GST-E1A/His-CtBP binding, 1536-well; stronger effect = lower value; control for the full effect not named in the record | activity change, % (concentration not given with the values) | 0.49% of 340,000 active | AID 651724, 2012; in the data active means activity change below about -65%; inconclusive means about -30% to -65%; inactive means above about -30%; also: % is scaled to controls: 0 for no effect and ±100 for the full control effect
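Homogeneous bead-based format: GST-tagged E1A captured on glutathione donor beads, His-tagged CtBP on nickel acceptor beads; compounds precede bead addition by 2 h at 37 °C.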
Six1-Eya2 inh – qHTS Assay for Inhibitors of the Six1/Eya2 Interaction | activity change, % (concentration not given with the values) | AlphaScreen GST-Six1/His-Eya2 binding, biochemical; stronger effect = lower value; control for the full effect not named in the record | 0.56% of 360,000 active; in the data active = activity change below about -65%; inconclusive = about -30% to -65%; inactive = above about -30%; also: % is scaled to controls: 0 for no effect and ±100 for the full control effect
Target sequence (O00167 whole entry, looked up): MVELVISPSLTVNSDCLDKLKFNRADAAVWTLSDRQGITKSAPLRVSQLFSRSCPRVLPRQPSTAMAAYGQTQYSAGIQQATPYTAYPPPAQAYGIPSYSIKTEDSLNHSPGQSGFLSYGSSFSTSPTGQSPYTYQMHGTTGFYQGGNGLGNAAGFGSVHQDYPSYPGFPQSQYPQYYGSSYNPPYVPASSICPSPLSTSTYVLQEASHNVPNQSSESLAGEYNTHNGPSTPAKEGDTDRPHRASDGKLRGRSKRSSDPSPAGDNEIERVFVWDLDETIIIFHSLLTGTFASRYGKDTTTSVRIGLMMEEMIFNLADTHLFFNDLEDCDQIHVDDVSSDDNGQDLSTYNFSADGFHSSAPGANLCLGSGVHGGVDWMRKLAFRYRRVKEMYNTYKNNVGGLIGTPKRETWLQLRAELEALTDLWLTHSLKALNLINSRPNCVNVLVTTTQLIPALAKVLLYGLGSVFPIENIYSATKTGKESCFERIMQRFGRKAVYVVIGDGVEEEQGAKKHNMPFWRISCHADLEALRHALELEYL
Target sequence (Q15475 whole entry, looked up): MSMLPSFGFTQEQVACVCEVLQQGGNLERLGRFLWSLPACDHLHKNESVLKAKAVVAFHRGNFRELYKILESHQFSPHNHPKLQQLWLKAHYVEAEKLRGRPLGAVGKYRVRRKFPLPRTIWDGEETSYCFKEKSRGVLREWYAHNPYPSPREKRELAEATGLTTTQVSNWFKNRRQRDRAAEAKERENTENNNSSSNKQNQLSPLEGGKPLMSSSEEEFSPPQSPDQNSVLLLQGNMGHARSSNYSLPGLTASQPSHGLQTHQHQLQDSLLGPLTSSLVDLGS
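AlphaScreen with GST-Six1 and His-Eya2 (5X mix: 250 nM and 500 nM), glutathione donor and nickel acceptor beads; buffer 50 mM Tris pH 8.0, 300 mM NaCl, 1 mM TCEP; 1 h at 37 C in the dark.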
Starred values were filed as active, the others as inactive; u = inconclusive; x = no result given.

SMILES	TRPML1 ag	D2 PAM	TRPV1 potentiator	TRPML1 inh	CtBP-E1A inh	Six1-Eya2 inh
O=C(NCCCc1ccccc1)c1cccc([N+](=O)[O-])c1	-0.7	-29	-7	-10	-2	2
O=C(c1ccco1)N1N=C(c2ccccc2O)CC1c1cccs1 (stereo not drawn)	0.3	-5	x	24	-3	-10
Cc1cc(C)nc(NC(=O)c2ccc(Cl)c(Cl)c2)n1	-0.8	-6	-19	-18	5	4
COC(=O)CSc1nnc(SCc2ccccc2)s1	-0.3	-18	-7	10	7	9
Cc1cc(C)cc(N2C(=O)C3CCCN3C2=S)c1 (stereo not drawn)	-1.6	-4	-9	-1	-4	-9
COc1ccc(Br)cc1CNC(=O)C1CCN(c2nnc(N3CCCC3=O)s2)CC1	-0.4	-14	3	10	2	-2
Cc1ccc(C)c(-n2c(N)c(C(N)=O)sc2=S)c1	-0.1	-19	-9	37	0	-15
Cc1ccc(OCC(=O)Nc2cccc(S(=O)(=O)N3CCOCC3)c2)c([N+](=O)[O-])n1	-0.6	-1	-1	-12	-1	6
COC(=O)c1cc(S(=O)(=O)NCc2ccc(S(N)(=O)=O)cc2)oc1C	0.3	-8	-1	-7	-1	10
NC(=N\N=Cc1ccco1)/C(N)=N/N=Cc1ccco1	-1.3	-3	x	4	u	u
CCc1ccc(-c2nc(CS(=O)CC(=O)NCc3ccco3)c(C)o2)cc1 (stereo not drawn)	0.6	-2	-3	-21	2	-5
CCOCCn1c(=NC(=O)/C=C/c2ccccc2Cl)sc2cc(NC(C)=O)ccc21	1.4	-8	-8	-1	2	1
O=C(c1ccccc1)c1ccc2ccccc2c1	-0.1	-10	x	11	54	18
CN1CCN(S(=O)(=O)c2cccc(C(=O)Nc3cc(C(F)(F)F)ccc3N3CCCC3)c2)CC1	0.0	-7	16	3	2	-6
Cc1ccc(CNCC(O)(c2ccccc2)c2ccc(Cl)cc2)cc1 (stereo not drawn)	2.4	-13	-8	-9	0	12
O=C(CSc1nnc(NC(=O)c2c(F)cccc2F)s1)NCc1ccco1	0.1	12	3	32	7	9
O=C(NC(C(=O)N/N=C/c1ccccc1)c1n[nH]c(=O)c2ccccc12)c1ccccc1 (stereo not drawn)	-0.3	-15	2	17	-1	-7
COc1ccccc1C(=O)NCC(=O)N1CCN(S(=O)(=O)c2ccccc2C(F)(F)F)CC1	0.5	-2	3	4	8	0
CCOC(=O)C1(Cc2cccc(Cl)c2)CCCN(C(=O)c2cc(CC)on2)C1 (stereo not drawn)	-1.0	9	-3	-4	7	0
Cc1ccc(NC(=O)COc2ccc(/C=N/NC(=O)CSCc3ccccc3)cc2)cc1	5.1	14	8	37	0	0

A section from further up, for reference:
SMILES	TRPML1 ag	D2 PAM	TRPV1 potentiator	TRPML1 inh	CtBP-E1A inh	Six1-Eya2 inh
O=C(NCCCc1ccccc1)c1cccc([N+](=O)[O-])c1	-0.7	-29	-7	-10	-2	2
O=C(c1ccco1)N1N=C(c2ccccc2O)CC1c1cccs1 (stereo not drawn)	0.3	-5	x	24	-3	-10
Cc1cc(C)nc(NC(=O)c2ccc(Cl)c(Cl)c2)n1	-0.8	-6	-19	-18	5	4
COC(=O)CSc1nnc(SCc2ccccc2)s1	-0.3	-18	-7	10	7	9
Cc1cc(C)cc(N2C(=O)C3CCCN3C2=S)c1 (stereo not drawn)	-1.6	-4	-9	-1	-4	-9
COc1ccc(Br)cc1CNC(=O)C1CCN(c2nnc(N3CCCC3=O)s2)CC1	-0.4	-14	3	10	2	-2
Cc1ccc(C)c(-n2c(N)c(C(N)=O)sc2=S)c1	-0.1	-19	-9	37	0	-15
Cc1ccc(OCC(=O)Nc2cccc(S(=O)(=O)N3CCOCC3)c2)c([N+](=O)[O-])n1	-0.6	-1	-1	-12	-1	6
COC(=O)c1cc(S(=O)(=O)NCc2ccc(S(N)(=O)=O)cc2)oc1C	0.3	-8	-1	-7	-1	10
NC(=N\N=Cc1ccco1)/C(N)=N/N=Cc1ccco1	-1.3	-3	x	4	u	u
CCc1ccc(-c2nc(CS(=O)CC(=O)NCc3ccco3)c(C)o2)cc1 (stereo not drawn)	0.6	-2	-3	-21	2	-5
CCOCCn1c(=NC(=O)/C=C/c2ccccc2Cl)sc2cc(NC(C)=O)ccc21	1.4	-8	-8	-1	2	1
O=C(c1ccccc1)c1ccc2ccccc2c1	-0.1	-10	x	11	54	18
CN1CCN(S(=O)(=O)c2cccc(C(=O)Nc3cc(C(F)(F)F)ccc3N3CCCC3)c2)CC1	0.0	-7	16	3	2	-6
Cc1ccc(CNCC(O)(c2ccccc2)c2ccc(Cl)cc2)cc1 (stereo not drawn)	2.4	-13	-8	-9	0	12
O=C(CSc1nnc(NC(=O)c2c(F)cccc2F)s1)NCc1ccco1	0.1	12	3	32	7	9
O=C(NC(C(=O)N/N=C/c1ccccc1)c1n[nH]c(=O)c2ccccc12)c1ccccc1 (stereo not drawn)	-0.3	-15	2	17	-1	-7
COc1ccccc1C(=O)NCC(=O)N1CCN(S(=O)(=O)c2ccccc2C(F)(F)F)CC1	0.5	-2	3	4	8	0

Following part.
SMILES	TRPML1 ag	D2 PAM	TRPV1 potentiator	TRPML1 inh	CtBP-E1A inh	Six1-Eya2 inh
Cc1c(C(=O)NC2=NCCS2)oc2ccccc12	0.3	-5	-12	-3	0	-1
O=C(N/N=C/c1cc2cc3c(cc2nc1Cl)OCO3)c1ccncc1	0.8	5	1	-10	x	-4
OCC[C@H]1C[C@@H](O)[C@H](O)[C@@]2(CCCO2)O1	-0.8	-39	x	-6	-2	2
Cc1c(C(=O)N2CCCC2)nnn1-c1nonc1N	-0.4	6	-13	-6	0	1
O=C(CCN1CCc2ccccc2C1)c1ccc2c(c1)OCCO2	10	-18	7	0	-10	2
COc1ccc(Cl)cc1NC(=O)CN(C)C(=O)c1cc2ccccc2cc1OC	-0.6	-17	4	28	-9	-23
COc1ccc(OC)c(Nc2ccc(Nc3cc(OC)ccc3OC)nn2)c1	0.8	-10	12	-3	0	0
Cc1cc(-c2nnc(CCC(=O)N(CC3CCC3)CC3CCCO3)o2)no1 (stereo not drawn)	-0.4	-2	-9	-1	-1	0
COc1cc(C2c3cc4c(cc3OC(NCCc3ccccc3)C2C)OCO4)cc(OC)c1OC (stereo not drawn)	2.7	-6	x	-3	-20	-14
COc1ccc(/C(O)=C2/C(=O)C(=O)N(c3ccccn3)C2c2ccc(OC)c(OC)c2)cc1 (stereo not drawn)	0.4	-6	21	10	8	5
COC(=O)C1=C(C(=O)OC)[C@@H]2N(C)c3ccccc3[C@@]23C[C@@H](C(=O)OC)N(C(=O)COCc2ccccc2)C3=N1	0.0	-12	-31	-10	x	-2
COc1ccc(-c2ccc3c(c2)S(=O)(=O)c2cccc(C(=O)N4CCN(c5ccccn5)CC4)c2C3=O)cc1OC	-0.3	7	x	15	2	-19
O=C(CS(=O)(=O)c1ccc(Cl)cc1)Nc1nccs1	0.1	-12	x	32	0	-7
O=C(Nc1ncc(C(F)(F)F)cc1Cl)C1COc2ccccc2O1 (stereo not drawn)	1.1	9	-13	-12	8	9
O=c1c(-c2ccccc2Cl)coc2c(CN3CCCCC3)c(O)ccc12	x	-9	3	x	26	-14
COc1ccc(S(=O)(=O)NCc2cc(-c3ccccc3Cl)no2)cc1	-0.4	-2	u	0	-4	0
COc1cccc(CNC(=O)Cc2ccc(S(=O)(=O)N3CCOCC3)s2)c1	-0.3	-4	-9	2	-20	3
CCN(CCn1cccn1)C(=O)CC1C(=O)NCCN1Cc1ccc(F)c(F)c1 (stereo not drawn)	0.1	-2	u	29	7	-8
CCc1ccc(N2CC(C(=O)N/N=C/c3ccccc3)CC2=O)cc1 (stereo not drawn)	0.2	-4	x	10	1	-2
O=C(Cc1ccc(S(=O)(=O)N2CCOCC2)s1)N1CCN(S(=O)(=O)c2cccc(Cl)c2)CC1	-0.2	-3	-14	-6	5	3
Cc1ccc(C(=O)Nc2ccc3nc(C)sc3c2)o1	-0.1	-26	x	-4	-5	1
Cc1ccc([C@H]2N[C@]3(CCCN(Cc4cccn4C)C3=O)[C@H]3C(=O)N(C)C(=O)[C@@H]23)cc1	0.1	-4	x	-20	-12	21
COc1ccccc1NS(=O)(=O)c1ccc(NC(=O)Cc2cccs2)cc1	0.5	-9	-12	31	0	7
CCOC(=O)C1=CN(Cc2cccc(F)c2)S(=O)(=O)N(CC)C1CCc1ccccc1 (stereo not drawn)	1.0	-9	x	-16	24	18
CCOc1ccccc1CN1CCC(n2nccc2NC(=O)C2CCCC2)CC1	-0.1	-31	-1	-4	-3	0
CCOC(=O)N1CCN(C(=O)COC(=O)c2ccc(Cl)nc2)CC1	-0.5	-7	x	-10	0	-1
Cc1cc(C)cc(OC(=O)C23CCC(C)(C(=O)O2)C3(C)C)c1 (stereo not drawn)	1.3	-3	-20	-11	-9	1
Cc1cccc(Oc2c([N+](=O)[O-])c(=O)n(C)c3ccccc23)c1	1.7	-12	-10	25	-8	-4
CC(=O)c1cnc(-c2ccccn2)s1	-0.3	5	4	-6	-13	-1
C=CCn1c(Cc2cccs2)nnc1SCC(=O)NCc1ccco1	-1.4	-5	11	34	0	23
COc1ccc(C2NC(=S)NC3=C2CCc2ccccc23)cc1OC (stereo not drawn)	-0.7	-13	-2	7	-8	-10
CC(=O)Nc1ccc(/C=C/c2nc(-c3ccccc3O)n[nH]2)cc1	2.1	28	6	12	x	-21
O=C(Cc1nc2ccccc2[nH]1)c1ccc(Cl)cc1	-0.3	-3	u	-10	-8	2
CN1OC[C@@H]2CN(C(=O)c3cccnc3)[C@H](c3ccc(N4CCCCC4)cc3)C[C@@H]21	0.1	-3	x	x	-25	13
OCCN(Cc1ccccc1)Cc1ccccc1Cl	0.6	2	22	-2	7	7
Clc1ccc(Sc2ccccn2)cc1	0.9	-2	-13	23	9	40
Cc1c(C)n(Cc2ccccc2)c2ncnc(N)c12	-0.3	-12	8	11	1	-12
COc1ccc(-c2noc(CN3CCCC(OCc4ccccn4)C3)n2)cc1 (stereo not drawn)	0.3	1	2	-5	3	-1
O=C(CNCc1ccccc1Cl)NCc1ccco1	1.6	-5	0	-2	4	5
O=C(CN1C(=O)C(=O)N(C2CCCC2)C1=O)NCCc1ccc(F)cc1	-0.3	-6	x	-6	5	0
O=C(Nc1ccc2c(c1)OCCO2)C(=S)NCc1ccccc1	-1.0	-21	-5	10	-2	-21
COc1cc(OC)cc(C(=O)Nc2nnc(SCC(=O)NCC3CCCO3)s2)c1 (stereo not drawn)	-0.8	3	-1	-4	10	6
